Screening data: PubChem BioAssay, National Center for Advancing Translational Sciences (NCATS)
TRPML1 blocker = blocks the human TRPML1 channel. activity change, negative = inhibition, % (no concentration beside the values). TRPML1-inducible cells, Ca2+ dye fluorescence, FDSS; hits give low values; inhibition of EC80 agonist-evoked calcium signal. hit rate 0.02% among 390,000. Q9GZU1. AID 624415; in the data active means activity change below about -50%; inconclusive means about -30% to -50%; inactive means above about -30%;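 note: stimulus is agonist 54-4 at its EC80 concentration; % is set by controls: 0 for no effect and ±100 for the full control effect; compound concentration not given in the record; the text of the record puts the active cut at -80%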
Target sequence (Q9GZU1 whole entry, looked up): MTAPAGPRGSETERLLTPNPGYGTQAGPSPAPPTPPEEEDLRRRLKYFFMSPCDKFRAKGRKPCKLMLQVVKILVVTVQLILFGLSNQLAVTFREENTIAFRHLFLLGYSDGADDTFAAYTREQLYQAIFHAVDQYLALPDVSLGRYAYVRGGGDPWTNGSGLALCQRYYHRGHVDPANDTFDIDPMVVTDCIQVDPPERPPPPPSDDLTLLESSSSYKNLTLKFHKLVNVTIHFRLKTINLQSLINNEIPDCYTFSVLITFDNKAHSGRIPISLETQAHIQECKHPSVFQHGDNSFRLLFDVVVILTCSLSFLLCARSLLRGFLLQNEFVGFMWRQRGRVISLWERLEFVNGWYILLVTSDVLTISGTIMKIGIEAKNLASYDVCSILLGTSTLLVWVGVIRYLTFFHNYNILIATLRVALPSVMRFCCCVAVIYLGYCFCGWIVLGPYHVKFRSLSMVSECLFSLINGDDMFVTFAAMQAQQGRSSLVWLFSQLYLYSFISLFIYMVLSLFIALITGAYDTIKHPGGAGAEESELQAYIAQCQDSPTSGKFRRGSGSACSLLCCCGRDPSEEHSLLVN
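Calcium fluorescence in TRPML1-DL cells induced overnight with Tet: a 110 s read after compound pin addition, then a 110 s antagonist read after challenge with 54-4 at 4 uM final (EC80).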
PINK1 expr mod = PINK1 expression modulation; PINK1 immunofluorescence, high-content cytometry, 24 h; Potency, µM (titrated, usually from 76.6 µM), inactives show top-dose activation (PINK1 increase), usual class: activators; hit rate 0.2% among 410,000; active = well fitted activation curve with a large enough effect; inconclusive = small, poorly fitted or top-dose-only effect; inactive = flat fitted curve, though single readings scatter; cell line not stated here;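 note: potency is the fitted concentration of half-maximal effect; % of control where 0% means no effect; nearly all actives have a fitted effect of over 65% in size; a mitochondrial uncoupler was the plate control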
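PINK1 protein level read as immunofluorescence by microplate cytometer in a fixed, stained stable cell line after 24 h exposure to five compound concentrations, with CCCP as control.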
TRPML1 agonist = human mucolipin-1 channel agonism. activation, % (concentration not given with the values). AID 624414. hit rate 0.12% among 410,000. TRPML1-expressing cells, Ca2+ dye fluorescence, FDSS; host cell line not named in the record; reference of the full effect not given here; in the data active = activation above about 50%; inconclusive = about 30% to 50%; inactive = below about 30%; note: 0% is about no effect; the text of the record puts the active cut at 80%
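Agonist activity was taken from a 110 s kinetic Ca2+ dye read on the FDSS after pinning compounds onto TRPML1-DL cells. The cells were seeded at 1,500/well with Tet inducer, incubated about 16 h, then dye-loaded at room temperature.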
Six1-Eya2 blk = Six1/Eya2 interaction inhibition; Q15475+O00167; AlphaScreen GST-Six1/His-Eya2 binding, biochemical; hits give low values; control for the full effect not named in the record; activity change, % (concentration not given with the values); hit rate 0.56% among 360,000; AID 651725; in the data active = activity change below about -65%; inconclusive = about -30% to -65%; inactive = above about -30%; note: % is set by controls: 0 for no effect and ±100 for the full control effect
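Compounds are tested against tagged Six1 and Eya2 proteins bridged by glutathione donor and nickel acceptor beads; after a one-hour incubation at 37 °C without light, AlphaScreen emission is recorded.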
D2 ag = human D2 receptor agonism in beta-arrestin assay; hit rate 0.084% among 360,000; P14416; DiscoveRx PathHunter D2 beta-arrestin, luminescence, 90 min; 100% = 57 uM dopamine signal; activation, % (no concentration beside the values); AID 624465; in the data active = activation above about 40%; inconclusive = about 15% to 40%; inactive = below about 15%; note: compound concentration not given in the record; the text of the record calls up to 30% inactive
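DiscoveRx PathHunter D2 beta-arrestin cells (2,100/well) attached overnight, then compound-stimulated 90 min at 37 C in HBSS/10 mM HEPES/0.1% Tween-20 buffer; beta-galactosidase complementation read by luminescence after 1 h at ambient temperature. Dopamine 57 uM final (EC100) as control.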
CtBP-E1A inh = inhibitors of CtBP/E1A interaction. AlphaScreen GST-E1A/His-CtBP binding, 1536-well; hits give low values; control for the full effect not named in the record. activity change, % (no concentration beside the values). hit rate 0.49% among 340,000. AID 651724; in the data active means activity change below about -65%; inconclusive means about -30% to -65%; inactive means above about -30%; note: % is set by controls: 0 for no effect and ±100 for the full control effect; compound concentration not given in the record
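Protein mix (5X: 125 nM each GST-E1A, His-CtBP) was incubated with pinned compound 2 h at 37 deg C in dark, in 50 mM Tris pH 8.0 buffer with 300 mM NaCl. Glutathione donor and nickel acceptor beads followed; AlphaScreen signal read after 1 h.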
The depositor's hits bear a star; ? = inconclusive; nt = no result given; [ ] = dose if it differs, or a comment.

SMILES	TRPML1 blocker	PINK1 expr mod	TRPML1 agonist	Six1-Eya2 blk	D2 ag	CtBP-E1A inh
CSc1ccc(CN2CCC(C)(Oc3cnc(Cl)c4ccccc34)C2)cc1 (stereo unspecified)	nt	1.7%	0.0	-1.8	6.9	-5.0
CC(=O)N(c1cccc(C)c1)C1SC(=O)N(c2ccccc2)C1=O (stereo unspecified)	23.9	2.3%	1.5	3.4	3.0	-6.0
COc1ccc2[nH]c3c(NCCC4=CCCCC4)ncnc3c2c1	-3.7	-1.9%	-0.1	-21.0	7.0	0.4
O=C(Cc1ccccc1)N/N=C/c1cc(Br)cc(Cl)c1O	-17.3	-1.0%	0.9	?	-5.4	?
N#CC1=C(N)Oc2ccc3ccc(O)cc3c2C1c1ccsc1 (stereo unspecified)	14.8	-2.5%	0.2	-24.5	0.3	-13.1
CCOc1cc(/C=C2\C(=N)N3N=C(S(=O)(=O)CC)SC3=NC2=O)ccc1OC(=O)c1ccco1	14.3	-1.5%	0.5	-25.9	-3.7	nt
Cc1cc(C)c(OCC(=O)N(Cc2cccc(F)c2)Cc2ccco2)c(C)c1	33.1	?	3.3	nt	nt	nt
COC(=O)C1CCN(S(=O)(=O)c2ccc(Br)s2)CC1	15.8	2.2%	1.3	9.2	1.7	-1.1
CCCCNC(=O)c1onc(CSc2ccc(Cl)cc2)c1C(=O)NCCCC	78.7	?	-0.6	21.0	0.4	18.8
Cc1noc(C)c1NC(=O)N(C)C[C@H]1Oc2ccc(NC(=O)Nc3ccc(C(F)(F)F)cc3)cc2C(=O)N([C@H](C)CO)C[C@@H]1C	2.2	5.0%	-0.5	1.0	0.0	23.4
COc1ccc(OCc2ccc(C(=O)O)cc2)cc1	-6.2	-3.2%	-0.5	22.4	-3.6	0.1
Cc1ccc(CCNC(=O)c2cc3sccc3n2Cc2ccc(C)cc2)cc1	-8.1	5.9%	0.3	nt	nt	nt
Oc1ccccc1C=NC1=NN(c2cccc(C(F)(F)F)c2)CC1	-7.9	2.5%[38.3 µM]	-0.6	-9.5	7.8	-2.6
CN(C)CC(O)COC(c1ccc(Cl)cc1)c1ccc(Cl)cc1 (stereo unspecified)	16.3	-2.8%	4.4	-9.7	3.6	-9.2
Cc1ccc(C(=O)NC(=S)Nc2ccc(NC(=O)c3cccc(Cl)c3)cc2)cc1	-11.7	9.9%	1.5	17.7	1.1	2.4
CC(C)(C)c1ccc(C2(C)NC(=O)N(CC(=O)NC3CCS(=O)(=O)C3)C2=O)cc1 (stereo unspecified)	-9.6	1.5%	0.7	4.6	-3.4	-13.8
CS(=O)(=O)N1Cc2ccccc2CC1C(=O)OCC(=O)NCc1ccccc1 (stereo unspecified)	-9.8	0.1%	-0.2	-2.0	2.4	0.7
Cc1nn(CCC(=O)NNC(=S)NCC(C)C)c(C)c1Br	-0.4	2.1%[38.3 µM]	0.0	3.2	-12.9	-0.9
COc1ccc2nc(NC(=O)c3cccc(-c4cc5ccccc5oc4=O)c3)sc2c1	11.8	-1.4%	0.1	-9.5	-0.4	-6.9
CCOc1ccccc1C(=O)Nc1cnn(Cc2ccc(F)cc2)c1	-7.2	4.4%	2.4	4.2	-3.7	-0.7
CSc1nc2n(n1)C(c1ccccn1)C1=C(CC(C)(C)CC1=O)N2 (stereo unspecified)	38.0	10.7%[38.3 µM]	-0.1	-3.0	-2.8	-1.4
O=C(COC(=O)C1CC2CCCC(C1)C2=O)Nc1ccc(Cl)cn1 (stereo unspecified)	-15.6	0.0%	3.4	1.2	8.6	8.8
Cc1cccc([N+](=O)[O-])c1NC(=O)COC(=O)c1nc2nccc(C)n2n1	-5.1	1.0%	-0.5	4.3	0.3	5.2
CCN(CC)CCN1C(=O)C(=O)/C(=C(/O)c2ccc(OC(C)C)cc2)C1c1ccncc1 (stereo unspecified)	17.5	0.1%	-0.9	-3.6	-1.1	4.1
CC1=C(C(=O)NC2CC(C)(C)Cc3c2cnn3-c2ccc(C)cc2)OCCO1 (stereo unspecified)	9.5	9.6%	0.3	-0.4	-2.5	9.6
O=C1CC(c2ccco2)CC(O)=C1C=Nc1cc(Cl)ccc1O (stereo unspecified)	-6.4	2.3%	6.8	-8.6	-1.8	-7.4
COc1cc(C(=O)NCCN2C(=O)S/C(=C\c3ccc(F)cc3)C2=O)ccc1OCC(=O)N1CCOCC1	-2.2	-1.9%	0.5	4.5	2.4	0.6
O=C(Cn1nnc2ccccc2c1=O)N[C@H](C(=O)O)c1ccccc1	nt	0.2%	nt	3.3	-1.3	5.1
Cc1ccc(S(=O)(=O)N(Cc2n[nH]c(=S)n2-c2ccccc2)c2cccc(Cl)c2)cc1	8.7	-1.1%	0.6	7.8	7.0	-3.9
O=C(OCC1CCCO1)c1ccc2c(c1)N(Cc1ccc(F)cc1)C(=O)c1ccccc1S2(=O)=O (stereo unspecified)	17.2	1.6%	2.9	nt	nt	nt
COc1cc(OC)nc(Oc2ccccc2C(=O)Oc2cccc(C)c2)n1	-7.2	nt	2.2	27.1	-0.5	-2.2
CN(C(=O)COC(=O)C1c2ccccc2Oc2ccccc21)C1CCS(=O)(=O)C1 (stereo unspecified)	-27.3	-1.0%	-0.3	4.4	-0.3	-2.8
Cc1cc(C)nc(SCc2nnc(SCC(=O)N3CCCc4ccccc43)n2C)n1	22.9	nt	0.5	1.5	-0.3	-5.7
CN1CCCC(OC(=O)c2ccc(C#N)cc2)C1 (stereo unspecified)	27.2	-1.4%	1.9	0.3	-18.1	8.4
Cc1ccc(C)c(S(=O)(=O)Nc2nc(C)c(C(=O)Nc3ccccc3)s2)c1	-13.4	5.3%	0.6	7.1	0.4	-12.7
Cc1cc(C(=O)COC(=O)CNC(=O)c2ccc(F)cc2)c(C)n1Cc1ccco1	29.1	-1.5%	1.0	-7.4	-0.7	-15.3
Cn1c(=O)c2ncn(CC(=O)N/N=C/C=C/c3ccccc3)c2n(C)c1=O	0.6	0.7%	0.7	4.6	-3.4	-7.7
O=C(C1CCN(S(=O)(=O)c2ccccc2)CC1)N1CCOCC1	-26.6	-0.6%[38.3 µM]	1.3	1.2	-2.0	1.4
Cc1c(Cl)cccc1NC(=O)C1NC(=O)CC1c1ccccc1 (stereo unspecified)	73.1	1.3%	0.4	-3.3	14.6	-3.0
C[C@@H]1CCCCO[C@H](CN(C)C(=O)c2ccccc2)[C@@H](C)CN([C@H](C)CO)C(=O)c2cc(NC(=O)c3ccncc3)ccc2O1	3.3	0.4%	-0.5	4.5	2.4	6.8
CCOC(=O)N1CCC(NC(=O)c2cc(-c3ccc(OC)cc3)nc3ccccc23)CC1	8.7	-0.3%	-0.8	2.7	4.4	6.0
Cc1cc(C(=O)NNC(=S)Nc2ccccc2C)cs1	-8.0	0.5%	-0.3	5.5	-8.0	2.4
Cn1c(=O)c2c(nc(CN3CCOCC3)n2CC(O)CO)n(C)c1=O (stereo unspecified)	-0.7	10.9%[38.3 µM]	0.2	5.4	-1.5	-0.9
CC(C)(C)OC(=O)NC1CNNC1=O (stereo unspecified)	8.7	0.6%	0.3	1.8	-2.8	4.9
Cc1cc(NC(=O)COC(=O)CCS(=O)(=O)c2cc(Cl)ccc2Cl)no1	10.7	1.1%	-0.7	3.3	-2.2	6.6
CN(C)c1ccc(/C=C(\NC(=O)c2ccccc2)C(=O)NCCCN2CCOCC2)cc1	-17.3	-0.2%	-0.2	0.0	2.4	17.6
CCOc1ccc(C(=O)/C=C/c2cn(CN3CCN(C)CC3)c3ccccc23)cc1	21.3	?	1.8	9.7	-2.3	2.4
O=C1CCN(Cc2ccccc2)C=C1C(=O)c1ccccc1	4.6	1.2%	-1.1	2.1	-2.3	0.6
COCCn1c(=O)[nH]c2cc(C(=O)Nc3nnc(C)s3)ccc21	-10.1	-0.1%	-0.6	1.0	-0.4	-4.4
CCN(CC)C(=O)COc1ccc(C=O)cc1OC	0.7	3.2%	0.0	3.5	0.9	-1.0
CC(C)(C)CN1CCN(Cc2nc(-c3ccc(F)cc3)cs2)CC1CCO (stereo unspecified)	-0.9	2.5%	-1.2	-18.2	-1.7	2.9

Compounds above with an aryl methoxy group, in the order listed:
SMILES	TRPML1 blocker	PINK1 expr mod	TRPML1 agonist	Six1-Eya2 blk	D2 ag	CtBP-E1A inh
COc1ccc2[nH]c3c(NCCC4=CCCCC4)ncnc3c2c1	-3.7	-1.9%	-0.1	-21.0	7.0	0.4
COc1ccc(OCc2ccc(C(=O)O)cc2)cc1	-6.2	-3.2%	-0.5	22.4	-3.6	0.1
COc1ccc2nc(NC(=O)c3cccc(-c4cc5ccccc5oc4=O)c3)sc2c1	11.8	-1.4%	0.1	-9.5	-0.4	-6.9
COc1cc(C(=O)NCCN2C(=O)S/C(=C\c3ccc(F)cc3)C2=O)ccc1OCC(=O)N1CCOCC1	-2.2	-1.9%	0.5	4.5	2.4	0.6
COc1cc(OC)nc(Oc2ccccc2C(=O)Oc2cccc(C)c2)n1	-7.2	nt	2.2	27.1	-0.5	-2.2
CCOC(=O)N1CCC(NC(=O)c2cc(-c3ccc(OC)cc3)nc3ccccc23)CC1	8.7	-0.3%	-0.8	2.7	4.4	6.0
CCN(CC)C(=O)COc1ccc(C=O)cc1OC	0.7	3.2%	0.0	3.5	0.9	-1.0
